# Six1-Eya2 blk: inhibitors of human Six1/Eya2 interaction | AlphaScreen GST-Six1/His-Eya2 binding, biochemical; active compounds read low; control for the full effect not named in the record | activity change, % (no concentration beside the values) | 360,000 compounds, 0.56% hits; in the data active = activity change below about -65%; inconclusive = about -30% to -65%; inactive = above about -30%; note: % is set by controls: 0 for no effect and ±100 for the full control effect
#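 Homogeneous AlphaScreen proximity assay pairing GST-Six1 with His-tagged Eya2 (added as 5X mix: 250 nM and 500 nM) in 50 mM Tris pH 8.0, 300 mM NaCl, 1 mM TCEP. Glutathione donor and nickel acceptor beads; 1 h, 37 °C, dark.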
# D2 ag: human D2 receptor agonism in beta-arrestin assay; AID 624465; DiscoveRx PathHunter D2 beta-arrestin, luminescence, 90 min; 100% = 57 uM dopamine signal; 360,000 compounds, 0.084% hits; activation, % (no concentration beside the values); in the data active = activation above about 40%; inconclusive = about 15% to 40%; inactive = below about 15%; note: compound concentration not given in the record; the text of the record calls up to 30% inactive
# Target sequence (P14416 whole entry, looked up): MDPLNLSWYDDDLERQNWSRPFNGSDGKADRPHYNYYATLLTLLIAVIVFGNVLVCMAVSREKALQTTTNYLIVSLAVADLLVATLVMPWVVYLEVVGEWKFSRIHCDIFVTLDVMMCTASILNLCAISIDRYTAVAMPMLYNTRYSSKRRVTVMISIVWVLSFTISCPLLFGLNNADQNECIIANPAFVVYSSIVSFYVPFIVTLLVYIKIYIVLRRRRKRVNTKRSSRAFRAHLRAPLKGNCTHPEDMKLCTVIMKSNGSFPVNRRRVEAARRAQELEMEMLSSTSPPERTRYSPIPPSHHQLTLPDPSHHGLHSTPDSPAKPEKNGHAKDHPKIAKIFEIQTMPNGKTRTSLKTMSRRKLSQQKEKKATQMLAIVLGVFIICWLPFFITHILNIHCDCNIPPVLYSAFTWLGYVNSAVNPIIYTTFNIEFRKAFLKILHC
#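 Agonist mode: compounds alone added to overnight-plated D2 PathHunter cells for 90 min at 37 C, with 57 uM final dopamine (EC100) defining full response. Beta-arrestin recruitment detected by chemiluminescent reagent, read after 1 h at ambient temperature.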
# D2 potentiator: potentiates the human D2 dopamine receptor allosterically. P14416. potentiation, % (concentration not given with the values). 360,000 compounds, 0.23% hits. DiscoveRx D2 beta-arrestin cells, luminescence, 90 min; 100% = 57 uM dopamine signal; active = potentiation of 50% or more; inconclusive = 30% to 50%; inactive = 30% or less;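 note: tested on top of an EC20 dose of dopamine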
#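 PathHunter D2 cells, attached overnight at 37 deg C, received compound in DMSO plus dopamine at EC20 (50 nM final) for 90 min at 37 deg C. Beta-arrestin recruitment was read as luminescence after 1 h with detection reagent at ambient temperature.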
# PINK1 expr mod: PINK1 expression modulation | Potency, µM (series often up to 76.6 µM), without a hit: top-dose activation (PINK1 increase), hits mostly activators | PINK1 immunofluorescence, high-content cytometry, 24 h | 410,000 compounds, 0.2% hits | AID 624263; active = well fitted activation curve with a large enough effect; inconclusive = small, poorly fitted or top-dose-only effect; inactive = flat fitted curve, though single readings scatter; cell line not stated here;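 note: potency is the fitted concentration of half-maximal effect; % of control where 0% means no effect; nearly all actives have a fitted effect of over 65% in size; a mitochondrial uncoupler was the plate control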
#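 Stable cell line, 250 cells/well, 12 h attachment; compounds pinned at 5 concentrations, 24 h; CCCP control. Fixed with nuclear dye, primary antibodies 12 h at 10 degrees C, secondary plus cell stain; laser-scanning cytometer read.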
# TRPML1 agonist: activates the human TRPML1 channel; Q9GZU1; activation, % (no concentration beside the values); 410,000 compounds, 0.12% hits; AID 624414; TRPML1-expressing cells, Ca2+ dye fluorescence, FDSS; host cell line not named in the record; reference of the full effect not given here; in the data active = activation above about 50%; inconclusive = about 30% to 50%; inactive = below about 30%; note: 0% is about no effect; the text of the record puts the active cut at 80%
# Target sequence (Q9GZU1 whole entry, looked up): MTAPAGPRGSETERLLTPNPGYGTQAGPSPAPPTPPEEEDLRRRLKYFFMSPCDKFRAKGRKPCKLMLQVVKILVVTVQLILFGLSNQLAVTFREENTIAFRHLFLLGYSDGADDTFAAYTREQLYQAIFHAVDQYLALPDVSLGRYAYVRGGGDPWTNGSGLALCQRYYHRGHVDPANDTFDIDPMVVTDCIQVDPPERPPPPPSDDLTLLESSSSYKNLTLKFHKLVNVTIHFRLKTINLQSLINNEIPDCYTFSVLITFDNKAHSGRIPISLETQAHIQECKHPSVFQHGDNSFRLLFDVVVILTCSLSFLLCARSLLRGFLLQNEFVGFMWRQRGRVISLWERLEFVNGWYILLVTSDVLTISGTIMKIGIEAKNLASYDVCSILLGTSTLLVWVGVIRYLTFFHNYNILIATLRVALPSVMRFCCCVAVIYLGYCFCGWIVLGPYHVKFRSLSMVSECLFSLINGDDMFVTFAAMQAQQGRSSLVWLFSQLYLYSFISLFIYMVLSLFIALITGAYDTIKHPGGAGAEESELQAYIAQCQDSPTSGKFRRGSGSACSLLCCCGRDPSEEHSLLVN
#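 TRPML1-DL cells, Tet-induced overnight (~16 h, 37 degrees C), loaded 45-90 min at room temperature with Ca8 no-wash calcium dye plus quencher. FDSS fluorescence: 10 s baseline, compound pin-transfer, 110 s agonist read, then EC80 54-4 (4uM final) and 110 s antagonist read.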
# TRPML1 inh: inhibitors of human TRPML1 channel; Q9GZU1; TRPML1-inducible cells, Ca2+ dye fluorescence, FDSS; active compounds read low; inhibition of EC80 agonist-evoked calcium signal; activity change, negative = inhibition, % (test concentration not listed); 390,000 compounds, 0.02% hits; AID 624415; in the data active means activity change below about -50%; inconclusive means about -30% to -50%; inactive means above about -30%;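 note: stimulus is agonist 54-4 at its EC80 concentration; % is set by controls: 0 for no effect and ±100 for the full control effect; compound concentration not given in the record; the text of the record puts the active cut at -80%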
#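 Tet-induced TRPML1-DL cells loaded with Ca8 no-wash calcium dye were read kinetically on FDSS. Compound addition was followed by EC80 agonist 54-4 (4 uM final); inhibition was read over 110 s.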
# * marks the source's active call; other numbers are inactive results; ? = inconclusive; . = not tested or not shown; [ ] = another dose, or the depositor's remark.
SMILES,Six1-Eya2 blk,D2 ag,D2 potentiator,PINK1 expr mod,TRPML1 agonist,TRPML1 inh
CCC(C)(C)n1nnnc1C(c1ccc(C)cc1)N1CCN(Cc2ccc3c(c2)OCO3)CC1 (stereo not given),-12,-3.0,-33,0.9%,0.5,15
Cc1cc(C(=O)NNS(=O)(=O)c2ccccc2C(F)(F)F)nn1C(C)(C)C,5,-0.7,-8,-0.5%,-0.1,2
COc1ccccc1CNC(=O)C1CC(=O)N(C2CCCC2)C1 (stereo not given),0,-2.5,0,.,-0.7,-9
Cc1ccccc1CNC(=O)c1ccc2nc(N3CCOCC3)sc2c1,0,-3.8,8,-1.2%,0.5,8
O=C(CSc1ccc([N+](=O)[O-])cn1)Nc1nccs1,1,8.1,-1,3.1%,-0.5,6
CC(NS(=O)(=O)c1ccccc1)C(N)=O (stereo not given),0,-0.3,4,-0.1%,-0.1,2
Cc1ccc(C)c(S(=O)(=O)NC(CC(C)C)C(=O)O)c1 (stereo not given),20,1.9,3,-1.0%,0.3,7
Cc1cc(C)c(S(=O)(=O)Nc2cnc3ccccc3c2)c(C)c1,7,-6.9,-7,3.3%,2.9,2
Cc1cc(Cl)c(S(=O)(=O)Nc2ccc(S(=O)(=O)N3CCOCC3)cc2)cc1OCC(N)=O,0,-2.0,-8,-0.8%,1.0,-14
O=C(O)CCN1CCN(S(=O)(=O)c2ccc3ccccc3c2)CC1,3,-2.2,-3,5.8%,0.4,-1
O=C(Nc1nc2ccccc2s1)C1=NN(c2ccccc2)C(=O)CC1,-2,-5.8,-4,1.2%,0.9,3
CN(CC(=O)NC(=O)NCc1ccccc1)Cc1cccc(Cl)c1Cl,-12,0.9,-3,4.5%,1.4,0
O=C1CCCN2N=C(SCC(=O)Nc3ccccc3C(F)(F)F)SC2=N1,-4,-2.8,-5,-2.3%,1.0,5
O=[N+]([O-])c1ccc(CSC2=NCCN2)cc1,3,-5.9,-41,12%,-0.3,38
O=C(O)C1=C[C@H](c2coc3ccccc3c2=O)C[C@H](OCc2ccc(CO)cc2)O1,23,-1.1,2,0.0%,-1.1,-17

# Next section; the last seven above are carried over.
SMILES,Six1-Eya2 blk,D2 ag,D2 potentiator,PINK1 expr mod,TRPML1 agonist,TRPML1 inh
Cc1cc(Cl)c(S(=O)(=O)Nc2ccc(S(=O)(=O)N3CCOCC3)cc2)cc1OCC(N)=O,0,-2.0,-8,-0.8%,1.0,-14
O=C(O)CCN1CCN(S(=O)(=O)c2ccc3ccccc3c2)CC1,3,-2.2,-3,5.8%,0.4,-1
O=C(Nc1nc2ccccc2s1)C1=NN(c2ccccc2)C(=O)CC1,-2,-5.8,-4,1.2%,0.9,3
CN(CC(=O)NC(=O)NCc1ccccc1)Cc1cccc(Cl)c1Cl,-12,0.9,-3,4.5%,1.4,0
O=C1CCCN2N=C(SCC(=O)Nc3ccccc3C(F)(F)F)SC2=N1,-4,-2.8,-5,-2.3%,1.0,5
O=[N+]([O-])c1ccc(CSC2=NCCN2)cc1,3,-5.9,-41,12%,-0.3,38
O=C(O)C1=C[C@H](c2coc3ccccc3c2=O)C[C@H](OCc2ccc(CO)cc2)O1,23,-1.1,2,0.0%,-1.1,-17
Cc1ccc(Nc2cc(C(=O)NC3CCCC3)c3ccccc3n2)c(C)c1,.,.,.,5.6%,1.6,-10
CO/N=C(\Cn1ncc(N2CCOCC2)c(Br)c1=O)c1ccc(Cl)cc1,-4,1.7,6,1.3%,1.7,19
Cc1ccccc1CNc1ccc(C(CC(N)=O)NC(=O)c2ccccc2)cc1[N+](=O)[O-] (stereo not given),-28,-2.8,-7,3.3%,-0.2,3
O/N=C/c1cn(-c2ccccc2)nc1-c1cccnc1,1,3.5,-21,-1.5%,-0.2,-3
O=C1CCCC/C1=C/NCc1ccc(F)cc1,11,-4.8,-8,-0.5%,0.4,-5
CCOc1ccc(NC(=S)c2ccc3ccccc3n2)cc1,-2,-2.2,-6,1.6%,-0.4,4
Cc1onc(-c2ccccc2)c1C(=O)N1CCN(c2ccccc2F)CC1,-1,1.1,-10,4.0%,-0.6,11
Cc1cc(C)nc(NC2=NC3CCCCC3N2)n1 (stereo not given),9,-0.9,-7,1.0%,0.9,-8
OC(c1ccc(-c2ccccc2)cc1)c1ncc(-c2ccccc2Cl)[nH]1 (stereo not given),-15,6.4,-9,7.7%,-0.3,.
CCOC(=O)c1cc(NC(=O)c2ccccc2)c(=O)n2c1oc1ccccc12,15,-2.7,-2,8.5%,1.5,-6
Cc1ccc2c(c1)-c1onc(C(=O)N(C)c3ccc(F)cc3)c1CO2,.,.,.,-0.4%,2.1,9
CCCC(=O)Nc1ccc(Cl)c(NC(=S)NC(=O)C(C)C)c1,5,-3.0,-1,1.8%,0.1,-7
CCOn1c(=O)c(-c2ccc(F)cc2)[n+]([O-])c2ccccc21,-1,-1.8,-4,-0.5%,0.3,-9
CCCc1cc(=O)oc2c(C)c3c(cc12)CN(CCc1ccc(Cl)cc1)CO3,.,.,.,-0.8%,-0.7,8
Cc1[nH]nc(SCC(=O)Nc2ccc(C#N)cc2)c1[N+](=O)[O-],-3,-0.8,-16,8.7%,-0.9,20
Cn1c(=O)c2cc(C(=O)N3CCN(c4cccc(C(F)(F)F)c4)CC3)sc2c2ccccc21,.,.,.,0.4%,0.2,2
Cc1ccc2nc(-c3ccc(C#N)cc3)c(Cc3ccccc3)n2c1,1,.,.,1.3%,0.6,.
COc1ccc(Cn2cc(C(=O)c3ccc(Cl)cc3)c(=O)c3cc4c(cc32)OCO4)cc1,.,.,.,-1.1%,0.7,-15
COc1ccc(CCN=C(N)NS(=O)(=O)c2cc(F)ccc2F)cc1,-1,-0.9,-5,-1.4%,-0.5,8
CN(Cc1nc2ccccc2s1)C(=O)c1ccc(F)cc1,-4,-2.3,-6,4.1%,-0.4,1
COc1ccccc1CN1CCN(S(=O)(=O)c2ccccc2)CC1,-2,0.8,-6,-0.5%,4.1,-12
CC(CCc1ccccc1)NC(=O)CN1CCSc2ccccc21 (stereo not given),-13,-2.3,-10,3.1%,-1.4,18
CCOP(=O)(c1ccccc1)C(O)c1ccc(Br)cc1 (stereo not given),-6,-5.8,-2,0.6%,-0.7,-10
CS(=O)(=O)N1CCC(C(=O)Nc2cc(C(F)(F)F)ccc2Cl)CC1,5,-2.3,-14,-1.5%[38.3 µM],1.4,20
O=c1oc2ccccc2n1Cc1ccccc1,3,-3.5,-3,3.7%,1.7,-18
O=C(COc1ncnc2ccc(Br)cc12)NC1CCCC1,1,-1.1,-3,1.2%,1.5,5
COc1ccc(NC2=CC(=O)N(C)C2=O)cc1,8,-5.6,-3,-1.9%,0.3,6
CC(C)(O)c1cc2ccc(C#CCCN3C(=O)c4ccccc4C3=O)cc2c(=O)o1,9,-1.8,-11,0.2%,1.1,-22
COc1ccc(-c2cc(N)n(CCC#N)n2)c(OC)c1,0,-1.8,3,3.2%,0.3,0
CNS(=O)(=O)c1cccc(C(=O)NNC(=O)c2ccc(COc3ccccc3)cc2)c1,2,6.1,-1,15%,-0.6,9
COc1ccc(C2N(c3cc(C)on3)C(=O)C3CCCN32)cc1OC (stereo not given),2,-0.6,-13,1.8%,0.2,-7
COc1cccc(C(=O)NN/C(C)=C/C(=O)C(F)(F)C(F)(F)C(F)(F)F)c1,-17,-7.6,-3,0.1%,0.0,17
COC(=O)N/N=C/c1cn(CCOc2ccccc2)c2ccccc12,-3,-2.5,-1,-2.2%,1.7,12
CSc1nc2oc3c(c2c2nncn12)CC(C)(C)SC3,-12,-2.3,10,-1.1%,1.1,36
CN(C)C(CNC(=O)CNC(=O)c1ccc2ccccc2c1)c1ccccc1 (stereo not given),6,-1.4,-7,1.8%,0.9,-28
Cc1ccc(O)c(NC(=S)NC(=O)C(C)C)c1,2,-1.8,-4,-1.6%,0.8,-3
CCCCOC(=O)c1[nH]c(C)c(C(=O)OC)c1C,-8,-1.7,-12,-0.5%,0.7,18
CCn1c(SCC(=O)Nc2c(C#N)cnn2-c2ccccc2)nnc1-c1cccs1,3,-5.6,-5,-0.6%,-0.4,-2
CCC(COC(=O)Nc1cccc(C)c1C)NC(=O)OCC(C)C (stereo not given),1,-1.8,-8,1.3%[38.3 µM],0.9,-1
COCc1[nH]nc2c1C(c1ccccc1Cl)C(C#N)=C(N)O2 (stereo not given),1,-2.0,-3,-1.9%,2.8,8
COCCCNC(=O)Cn1c(=O)n(CCCCCC(=O)NCc2ccc3c(c2)OCO3)c(=O)c2sccc21,4,-1.5,0,-2.0%,-0.2,-6
Cc1ccc(N(CN2C(=O)c3ccccc3C2=O)C(=O)c2ccc([N+](=O)[O-])cc2[N+](=O)[O-])cc1,-14,5.7,9,-0.1%,0.9,15
Cc1cc(C)cc(OCC(=O)Nc2ccc(-n3cnnn3)cc2)c1,-7,-0.1,-5,7.3%,-0.2,1
COc1ccc2c(c1)c1c(c(=O)n(-c3ccc(F)c(Cl)c3)c(=O)n1CC(N)=O)n2C,.,.,.,0.7%,-0.4,6
CC1Cc2cc(S(=O)(=O)CCC(=O)Nc3ccc(F)c(Cl)c3)ccc2N1C(=O)C1CC1 (stereo not given),.,.,.,2.1%,1.8,15
O=C(Nc1cnn(Cc2ccccc2)c1)c1cc2nc(-c3ccco3)cc(C(F)(F)F)n2n1,-4,-2.4,-3,11%,0.2,-4
NC(=O)Cn1nnc(-c2ccc(NC(=O)c3ccc(F)cc3)cc2)n1,-1,-6.4,-4,-0.5%,0.0,32
CCCNC(=O)C1(C)CCCN(Cc2cccn2C)C1 (stereo not given),0,2.2,-6,-0.1%,-0.2,.
COc1ccc(Nc2ncc3c(n2)CC(c2ccccc2)CC3=O)cc1 (stereo not given),5,2.8,-6,?,3.2,4
CC(=O)c1cccc(CN2CCC(CO)(CCOc3ccccc3)CC2)c1,-11,-4.3,-3,0.5%,-0.6,-9
COC(=O)[C@]12CCCCC=C1N(Cc1ccc(Cl)cc1Cl)C(=O)[C@H](CC(=O)NCC13CC4CC(CC(C4)C1)C3)C2,-2,.,.,0.6%,-0.4,.
COc1ccc(CNC(=O)CN(Cc2ccc(Cl)cc2)S(C)(=O)=O)cc1,3,-0.2,12,-0.3%,2.3,25
Cc1nn(-c2ccccc2)c(C)c1/C=N/NC(=O)c1cccs1,-24,-6.4,-14,3.9%,-1.2,0
CCc1c(C)sc(NC(=O)c2ccccc2[N+](=O)[O-])c1C(N)=O,-6,-7.9,-26,2.9%,-0.4,-9

# An excerpt of these results, with values under each structure.
# Screens in order – Six1-Eya2 blk, D2 ag, D2 potentiator, PINK1 expr mod, TRPML1 agonist, TRPML1 inh
Cc1nn(-c2ccccc2)c(C)c1/C=N/NC(=O)c1cccs1
 : -24, -6.4, -14, 3.9%, -1.2, 0
CCc1c(C)sc(NC(=O)c2ccccc2[N+](=O)[O-])c1C(N)=O
 : -6, -7.9, -26, 2.9%, -0.4, -9

# Bioassay records: PubChem BioAssay, National Center for Advancing Translational Sciences (NCATS)
